# Sa RN4220 lethal: S. aureus RN4220 growth inhibition | OD600, 16 h | AID 1259311 | 0.33% of 330,000 active | inhibition, % (no concentration beside the values);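 active means z-score of -3 or lower and OD600 up to 0.18 on both plates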;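 further: plate controls were untreated cells for no effect and reference antibiotic for full effect; stock transfer was 100 nL into about 80 µL; one replicate is shown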
# Bead autofluor: compound fluorescence in toxin protease inhibitor counterscreen. compound autofluorescence counterscreen, microsphere flow cytometry; active compounds read high. fluorescence intensity (test concentration not listed). 3.1% of 360,000 active. AID 624483;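 active means at least 3 SD above the mean of all compounds, about 16000 in these data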;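 further: 100 nL of 1 mM stock went into each well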
# Sa ugtP lethal: compounds lethal to S. aureus RN4220 ugtP deletion mutant | OD600 growth, 16 h; some inactives read as strong as hits | growth inhibition, % (test concentration not listed) | 0.54% of 330,000 active;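 active means z-score under -3 and OD600 up to 0.15 on both plates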;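 further: plate controls were untreated wells for no effect and antibiotic for full effect; wells of about 80 µL received 100 nL stock; the first replicate is given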
# BJeLR lethal: BJeLR cell viability loss; BJeLR (HRASV12) viability, CellTiter-Glo ATP luminescence, 48 h; reference of the scale not given here; 0.17% of 300,000 active; AID 1554; inhibition, % (no concentration beside the values);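 active means replicate mean above 50%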;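 further: 50 nL library stock added to about 25 µL; numbers are from one replicate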
# PrP UTR inh: inhibition of PrP 5' UTR reporter expression | cell-based PrP 5' UTR mRNA reporter, plate reader | inhibition, % (concentration not given with the values) | 0.35% of 340,000 active | AID 488862;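 active means every replicate at 50% or more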;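 further: 0 = median of the neutral control wells; tested in H4 reporter cells; numbers are from one replicate; inactives centre near -14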
# Mtb hypoxia inh: Mtb hypoxia fluorescent reporter inhibition | M. tuberculosis hypoxia-regulated fluorescent reporter, fluorescence | fluorescence inhibition, % (concentration not given with the values) | 0.1% of 300,000 active | AID 1159583;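 active means 35 to 45% if threefold the growth effect, above 45% if 1.5-fold the growth effect; inactive means the rest, general growth blockers included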;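 further: wells of about 50 µL received 100 nL stock; 0% = vehicle wells and 100% = reference inhibitor wells; whole bacteria with a GFP reporter of the hypoxia response; strong numbers were not always called active; many hits fall short of the cut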
# Mtb hypoxia inh growth: second read-out of Mtb hypoxia inh, no call of its own (marks repeat the call); growth inhibition, %; measured here: M. tuberculosis growth (absorbance);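 0% = vehicle and 100% = reference antibiotic; read after six days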
# Numbers without * were called inactive; . = no result given; & = joins results of further samples.
SMILES,Sa RN4220 lethal,Bead autofluor,Sa ugtP lethal,BJeLR lethal,PrP UTR inh,Mtb hypoxia inh,Mtb hypoxia inh growth
COCCNC(=O)C(OC(=O)C1=Cc2ccccc2OC1)C(C)C (configuration not stated),2.2,4424,10,5,-3,7,9
O=C(Nc1ccc2c(c1)OCCO2)c1ccncc1,-1.4,5042,0,-13,-30,.,.
Cc1c(Cl)cccc1N(Cc1ccc(C(=O)O)cc1)S(=O)(=O)c1ccccc1,17,3389,13,4,-34,1,12
COc1cc(NC(=O)c2cc(-c3ccc4c(c3)OCO4)on2)cc(OC)c1OC,6.3,5998,-12,5,-16,-1,11
CC1(C)CC(NC(=O)C23CCC(C)(C(=O)C2=O)C3(C)C)CC(C)(C)N1 (configuration not stated),1.2,4471,2,-4,-7,16,8
COc1ccc(CCN2C(=O)CC(Sc3ncccc3C(=O)O)C2=O)cc1OC (configuration not stated),0.3,23415*,-4,10,-8,1,6
O=C1c2ccccc2C(=O)N1CC1c2ccccc2CCN1S(=O)(=O)c1cnc[nH]1 (configuration not stated),5.4,3647,9,3,-8,.,.
CN(NS(C)(=O)=O)c1c(C#N)c(C(F)(F)F)nn1C,0.3,5167,-4,-3,0,0,4
CCOC1(c2ccccc2)CC1C(=O)NN=Cc1cccc([N+](=O)[O-])c1 (configuration not stated),3.4,.,-7,.,.,8,3
Cc1ccc(CNC(=O)Cn2c(=O)n(CC(=O)N3CCCCC3)c(=O)c3sccc32)cc1,2.5,5167,8,-15,-11,9,-4
Cc1cccc(/C=N/NC(=O)c2ccc3c(c2)OCCO3)c1O,.,6651,.,14,9,.,.
CCCn1c(SCC(=O)NC2CCCCC2C)n[nH]c1=O (configuration not stated),0.1,4680,3,10,-18,.,.
Cc1ccc(-n2nc(C)c(NS(=O)(=O)c3ccccc3)c2C)cc1C,2.8,8049,2,14,-8,3,-1
CC1Cc2nc(SCC(=O)Nc3ccc4c(c3)OCO4)n(-c3ccc(F)cc3)c(=O)c2S1 (configuration not stated),-14,6049,-2,-8,-3,5,11
COc1cccc2cc(C(=O)c3ccc([N+](=O)[O-])cc3)oc12,5.6,2557,0,0,-18,8,3
CCCCN=C(C)c1c(O)c2ccccc2oc1=O,0.8,5368,-1,-6,-43,.,.
CC(CC(=O)NCCc1ccc(S(N)(=O)=O)cc1)c1ccccc1 (configuration not stated),3.5,.,3,9,-19,-2,-20
CCN1CCN(C(=O)c2ccccc2N(Cc2ccccc2)S(=O)(=O)c2ccc(C)cc2)CC1,3.1,21954*,0,-5,-10,4,1
CCn1nnnc1SCC(=O)Nc1sc(C)c(C)c1C#N,13,2948,-3,-8,-26,11,7
Cc1cccc(NC(=O)c2nc[nH]c2C(=O)N[C@@H](Cc2ccccc2)C(=O)OCc2ccccc2)c1,.,3489,.,-4,-20,.,.
NS(=O)(=O)c1ccc(NC(=O)COC(=O)COc2ccc3ccccc3c2)cc1,14,3471,-61,-1,-8,2,13
CNS(=O)(=O)c1cccc(C(=O)NNC(=O)CN(C)S(=O)(=O)c2ccc(Cl)cc2)c1,0.7,.,1,-3,-8,-2,10
CC(=O)c1ccc(NC(=O)CC(NCCC2=CCCCC2)C(=O)O)cc1 (configuration not stated),3.9,2691,5,-5,-12,8,2
COC(=O)c1ccc(NCC(=O)Nc2cc(C)cc(C)c2)cc1,2.5,4779,-1,-12,-11,14,1
C=CCSc1ncccc1C(=O)O,3.4,23263*,6,-3,-42,-1,-4
N#C/C(=C\Nc1ccc2cn[nH]c2c1)c1nc(-c2ccc(Cl)cc2)cs1,.,4337,.,3,-9,.,.
Cc1ccc(NC(=O)CCc2nc(-c3cccs3)no2)c(Br)c1,1.8,5620,3,-5,-5,-1,-4
NS(=O)(=O)c1ccc2nc(NC(=O)c3ccc(Br)o3)sc2c1,-0.8,4213,11,1,-28,7,4
CCOC1OC(C(=O)N2CCOCC2)=CC(c2coc3ccccc3c2=O)C1CCCO (configuration not stated),0.4&4.7,.,-2&1,.,.,0&5,-8&-9
COc1ccc(C)cc1S(=O)(=O)n1nc(C)cc1C,-2.0,5134,-4,0,-9,0,5
CCOC(=O)c1cnn(CCOC(=O)c2cccs2)c1NC(=O)c1cccs1,1.0,22411*,1,.,-6,11,9
O=C(CNC(=O)c1cccnc1)NN=Cc1cccnc1,1.4,.,12,.,.,11,5
O=C(c1cc([N+](=O)[O-])ccc1N1CCOCC1)N1CCN(c2ccccc2)CC1,.,6322,.,56*,81*,.,.
O=C(COC(=O)c1oc2ccccc2c1CSc1ccc(Cl)cc1)NC1CCCC1,3.2,2121,20,4,-9,-8,3
COc1ccc2nc(C)cc(SCC(=O)N/N=C/c3c(OC)ccc4ccccc34)c2c1,.,2111,.,7,-18,.,.
Cn1c(=O)[nH]c(=O)c2c1nc(N1CCN(CCO)CC1)n2CCSc1nc2ccccc2s1,21,4446,16,-11,-19,-5,-1
Nc1cc(=O)nc(SCC(=O)NCc2ccccc2)n1CCc1ccccc1,2.2,8427,3,-18,-11,-1,3
COc1cc(CNc2ccc3[nH]c(=O)[nH]c3c2)ccc1OCc1ccccc1Cl,1.1,3506,3,-8,-22,15,4
CSc1sc(C(=O)NCC2CC2)c(-c2cccs2)c1C#N,3.2,4409,3,2,-7,0,-9
COC(=O)c1ccc(NC(=O)C2CCCN(S(C)(=O)=O)C2)cc1 (configuration not stated),1.1,2077,5,-2,-17,-16,-7
CC(=O)Nc1cccc2c1C(=O)NC2=O,0.8,4932,2,10,-24,.,.
CCOC(=O)N1CCC(N2CC34C=CC(O3)C(C(=O)O)C4C2=O)CC1 (configuration not stated),-0.9,6184,11,-6,-16,.,.
CC(=O)Nc1ccc2ccccc2c1[N+](=O)[O-],-0.1,3339,1,.,-32,17,19
CCOC(=O)C(NC(=O)NCc1ccccc1OC)(OCC)C(F)(F)F (configuration not stated),7.3,2306,1,-2,-6,4,9
Cc1ccccc1OCC(=O)NNC(=O)c1cc(S(=O)(=O)N2CCOCC2)ccc1N1CCCC1,2.9,5413,4,-3,-77,1,-3
CC(=O)Nc1cccc(C(=O)OCC(=O)c2ccccc2Cl)c1,4.8,4229,4,-12,-49,7,14
O=c1[nH]c2cc3c(cc2cc1CN(CC1CCCO1)S(=O)(=O)c1ccc(Cl)cc1)OCCO3 (configuration not stated),2.7,10430,0,-10,-24,14,2
CC(C)(C)c1ccc(-c2noc(CCC(=O)N3CCOCC3)n2)cc1,1.8,3841,15,-2,-14,6,12
Cn1c(=O)c2c(ncn2CC(COCc2ccc(Cl)cc2)OCc2ccc(Cl)cc2)n(C)c1=O (configuration not stated),-15,3105,-15,-5,-24,5,12
Cc1ccccc1Nc1c(-c2cccnc2)nc2cccc(C)n12,5.1,4495,7,-2,-3,7,11
COc1ccc(S(=O)(=O)N(CC(=O)N/N=C/c2ccc(C(=O)O)cc2)Cc2ccccc2)cc1OC,.,3851,.,-11,4,.,.
O=C(NC1c2ccccc2Oc2ccccc21)c1ccc([N+](=O)[O-])cc1,0.2,2966,6,.,-8,9,0
Cc1ccccc1N/C(SCc1ccc(Cl)cc1)=C(/C#N)C(=O)NCc1ccco1,-6.8,9017,48,0,-19,5,2
Cc1ccc(C2CN(C)CC2C(=O)c2ccc(F)cc2)cc1 (configuration not stated),1.3,3303,3,5,-17,-7,-8
Cc1ccc(C)c(Nc2nc(N)c3ccccc3n2)c1,0.3,4244,4,0,-103,-22,3
CCC(C)NC(=O)CCC(=O)Nc1ccc2nc(N3CC(C)CC(C)C3)cc(C)c2c1 (configuration not stated),6.5,5037,3,11,-12,-1,2
CCCC[C@@H]1C=C(C(=O)O)[C@H](c2ccc(Cl)cc2)N1S(=O)(=O)c1ccc(C)cc1,18,4076,-4,.,-31,-6,3
O=C(CCCC(=O)N(CC(=O)NC1CCCC1)Cc1ccccc1Cl)Nc1ccccn1,-0.3,2803,-5,-3,-2,0,9
CC(C)C1Cc2c(sc3c2c(=O)n(-c2ccccc2)c2n[nH]c(=S)n32)CO1 (configuration not stated),5.7,4206,8,-1,-18,-10,4
O=C(O)CCCc1ccc2c(c1)CCc1ccccc1-2,.,4605,.,-8,65*,.,.

# A second format for some results above.
Cc1ccc(C)c(Nc2nc(N)c3ccccc3n2)c1
  Sa RN4220 lethal: 0.3 | Bead autofluor: 4244 | Sa ugtP lethal: 4 | BJeLR lethal: 0 | PrP UTR inh: -103 | Mtb hypoxia inh: -22 | Mtb hypoxia inh growth: 3
CC(C)(C)c1ccc(-c2noc(CCC(=O)N3CCOCC3)n2)cc1
  Sa RN4220 lethal: 1.8 | Bead autofluor: 3841 | Sa ugtP lethal: 15 | BJeLR lethal: -2 | PrP UTR inh: -14 | Mtb hypoxia inh: 6 | Mtb hypoxia inh growth: 12
CC(=O)Nc1cccc(C(=O)OCC(=O)c2ccccc2Cl)c1
  Sa RN4220 lethal: 4.8 | Bead autofluor: 4229 | Sa ugtP lethal: 4 | BJeLR lethal: -12 | PrP UTR inh: -49 | Mtb hypoxia inh: 7 | Mtb hypoxia inh growth: 14

# The listing continues:
SMILES,Sa RN4220 lethal,Bead autofluor,Sa ugtP lethal,BJeLR lethal,PrP UTR inh,Mtb hypoxia inh,Mtb hypoxia inh growth
O=C1NC(=O)/C(=C/C(=O)N2CCOCC2)S1,0.2,2590,2,10,-23,0,3
COc1cc2c(cc1OC)CN(CC(=O)Nc1ccc(S(=O)(=O)N(C)C)cc1)CC2,6.3,4749,8,4,-21,9,0
COc1ccc(C(=O)NC(=S)N2CCNC(=O)C2CC(=O)OC(C)C)cc1 (configuration not stated),1.4,4388,2,6,-28,8,0
Cc1ccc(S(=O)(=O)Nc2cccc(S(=O)(=O)Nc3ccccc3C(=O)O)c2)c(C)c1,1.4,3782,32,.,-17,11,13
CCOC(=O)C1CCN(C(=O)c2cc3c(C)cc(C)cc3[nH]2)CC1,1.8,3624,-1,-3,-2,11,8
CC1CCCCCCCCC(=O)OCCN(C(=O)OC(C)(C)C)C(C)CCCCCCCCC(=O)OCCN(C(=O)OC(C)(C)C)C(C)CCCCCCCCC(=O)OCCN(C(=O)OC(C)(C)C)C(C)CCCCCCCCC(=O)OCCN1C(=O)OC(C)(C)C (configuration not stated),9.8,.,0,.,.,11,8
COc1ccc(/C(N)=C/C(=O)C(C)(C)C)cc1,7.3,13278,-1,-7,-45,15,3
C=CCn1c(O)c(C=NCCCOc2ccc(CC)cc2)c(=O)[nH]c1=S,5.6,2961,-8,-3,-8,7,5
CCOC(=O)CN1C(=O)C(O)(c2c(C)[nH]c3ccccc23)c2ccccc21 (configuration not stated),2.7,4503,-2,1,-19,10,11
CCCc1nc2cc3c(cc2[nH]1)n(C)c(=O)n3C,0.6,3526,6,-3,-24,16,6
COc1ccccc1/C=N/NC(=O)c1ccc(-c2ccccc2)cc1,.,2566,.,6,-1,.,.
O=C(CNC(=S)N(CCCN1CCOCC1)Cc1cccs1)NCCCN1CCOCC1,2.4,7690,2,0,-3,2,1
O=C(C=Cc1ccco1)NC(=S)Nc1cc(C(F)(F)F)ccc1N1CCOCC1,-4.3,.,96*,.,.,-1,1
OCC(CO)(CO)NCC(O)CN1c2ccccc2Sc2ccccc21 (configuration not stated),1.4,3561,-7,2,-8,-9,9
CC(=O)[C@H]1[C@H](CCc2ccccc2)NC(=O)N(Cc2ccccc2)[C@@H]1C,.,4355,.,-9,-52,.,.

# Two compounds picked at random from those above, as already listed:
SMILES,Sa RN4220 lethal,Bead autofluor,Sa ugtP lethal,BJeLR lethal,PrP UTR inh,Mtb hypoxia inh,Mtb hypoxia inh growth
O=C(CNC(=S)N(CCCN1CCOCC1)Cc1cccs1)NCCCN1CCOCC1,2.4,7690,2,0,-3,2,1
COc1ccc(/C(N)=C/C(=O)C(C)(C)C)cc1,7.3,13278,-1,-7,-45,15,3

# New compounds follow.
SMILES,Sa RN4220 lethal,Bead autofluor,Sa ugtP lethal,BJeLR lethal,PrP UTR inh,Mtb hypoxia inh,Mtb hypoxia inh growth
CC1(C)CC(=O)c2cc(C(=O)O)c(=O)n(-c3ccccc3)c2C1,3.5,8750,7,28,-26,12,5
Cc1ccc(C(=O)N/N=C\C=C\c2ccccc2[N+](=O)[O-])cn1,.,2138,.,-6,-6,.,.
CC1c2ccsc2CCN1C(=O)NC(=O)c1ccc(Cl)cc1 (configuration not stated),3.6,4123,-2,4,-13,2,-1
CC(NC(=O)C(=O)NN=C1CCC(C(C)(C)C)CC1)c1ccccc1 (configuration not stated),1.4,8724,4,-3,-17,4,11
Cc1cc(C)c2nc(N3CCCC(C(=O)NCCCN4CCOCC4)C3)sc2c1 (configuration not stated),2.1,3902,1,6,-9,5,0
CCC(=O)NC(c1cccs1)c1cc(Cl)c2cccnc2c1O (configuration not stated),25,4322,-17,6,5,10,2

# Bioassay records from PubChem BioAssay.
